# Screens: PubChem BioAssay, several laboratories
# YopH PTP inh: inhibitors of Yersinia enterocolitica YopH tyrosine phosphatase | AID 898 | fluorescence Ex485/Em525 | 140,000 tested, 0.16% active | inhibition, %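 (about 10 µM by stock and volumes)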;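 active = inhibition of 50% or more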;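 also: controls were vehicle for no effect and minimum signal wells for full effect; inactives centre near -20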
# Mtb growth: M. tuberculosis H37Rv growth inhibitors, H37Rv strain (AID 1626); 220,000 tested, 0.95% active; M. tuberculosis H37Rv growth inhibition; higher % means a stronger effect; inhibition, % at 10 µM, or IC50 in µM where a hit was titrated;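 active = confirmed in a dose series; inconclusive = inhibition above 80% but not taken into the dose series; inactive = below 80% or under 30% at every dose of the series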;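 also: bacteria incubated seven days before Alamar blue readout; 0% = bacteria only wells and 100% = bacteria with antibiotic wells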
# RecA splice inh: blocks M. tuberculosis RecA intein splicing | cell-free RecA intein splicing, fluorescence | 290,000 tested, 0.75% active | inhibition, %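 (about 9 µM by stock and volumes)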; in the data active = inhibition above about 30%; inconclusive = no clear call, values can overlap the other calls;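 also: 0% = vehicle wells and 100% = reference inhibitor control wells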
# Target sequence (P9WHJ3 whole entry, looked up, canonical isoform): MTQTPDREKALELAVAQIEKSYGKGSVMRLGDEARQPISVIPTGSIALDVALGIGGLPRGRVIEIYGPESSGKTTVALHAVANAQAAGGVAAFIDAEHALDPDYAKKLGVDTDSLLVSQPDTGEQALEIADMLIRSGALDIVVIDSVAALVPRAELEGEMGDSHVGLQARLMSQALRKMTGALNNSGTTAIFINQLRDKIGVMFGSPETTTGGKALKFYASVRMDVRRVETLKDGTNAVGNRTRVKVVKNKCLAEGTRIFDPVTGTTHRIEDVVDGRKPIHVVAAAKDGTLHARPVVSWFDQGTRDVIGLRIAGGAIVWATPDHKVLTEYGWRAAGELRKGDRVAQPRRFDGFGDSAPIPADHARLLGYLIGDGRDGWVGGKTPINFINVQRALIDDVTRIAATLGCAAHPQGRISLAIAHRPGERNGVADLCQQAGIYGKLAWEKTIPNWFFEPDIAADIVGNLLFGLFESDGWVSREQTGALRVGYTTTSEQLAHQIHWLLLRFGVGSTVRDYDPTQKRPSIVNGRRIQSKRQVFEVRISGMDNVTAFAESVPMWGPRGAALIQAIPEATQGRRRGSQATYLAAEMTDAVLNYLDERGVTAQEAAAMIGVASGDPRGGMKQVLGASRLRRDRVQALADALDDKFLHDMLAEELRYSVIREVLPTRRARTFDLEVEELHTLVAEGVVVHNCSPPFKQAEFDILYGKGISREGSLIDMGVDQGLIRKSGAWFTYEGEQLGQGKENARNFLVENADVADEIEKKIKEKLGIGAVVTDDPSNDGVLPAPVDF
# Arbovirus inh: blocks arbovirus infection | arbovirus infection cell-based antiviral screen | inhibition, % at 10 µM | 200,000 tested, 0.37% active;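 active = inhibition from about 30%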;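 also: bluetongue infection of BSR cells; cell survival read as ATP light after 72 h; 0% = infected wells without compound and 100% = uninfected wells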
# Mtb bLac sens: beta-lactam sensitization of Mtb H37Rv; 330,000 tested, 0.27% active; inhibition, % at 25 µM; AID 434955; M. tuberculosis H37Rv growth with meropenem, percent inhibition; hits of this screen are not shown here;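 active = about 74% or more and at least 40 points above the plate without the antibiotic, then above 30% in a dose series; inconclusive = first-round hits that could not be retested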;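 also: growth measured after seven days incubation then overnight dye step; 0% = bacteria only wells and 100% = bacteria with antibiotic; twin plates without the antibiotic show which effects depend on it; some results filed as inactive read as strong as hits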
# Arbovirus inh repeat: further read-out of Arbovirus inh, marked with its call; inhibition, %; measured here: 10K subset replicate screen; many hits read low in the repeat;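 first of two repeat runs on a subset; 0% = infected and 100% = uninfected wells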
# Starred values were filed as active, the others as inactive; ? = inconclusive; . = not tested or not shown.
SMILES,YopH PTP inh,Mtb growth,RecA splice inh,Arbovirus inh,Mtb bLac sens,others
C=CCNC(=O)NC(=O)COC(=O)/C(C#N)=C/c1cc(C)n(CCC(C)C)c1C,-31,-7%,.,-2,.,
O=[N+]([O-])c1ccc(COP(=O)(O)OCc2ccc([N+](=O)[O-])cc2)cc1,.,.,-0.1,.,-3,
COc1ccc(OCCNc2cc(N3CCOCC3)ccc2[N+](=O)[O-])cc1,-19,.,-0.9,0,-6,
Cc1nn(C(=O)c2nn(C)cc2[N+](=O)[O-])c(C)c1Cl,.,-4%,-1.3,5,7,
CN(CCCNC(=O)c1ccccc1F)CCCNC(=O)c1ccccc1F,.,.,-2.2,.,-8,
CCN(CC)c1ccc(/C=N/NC(=O)c2ccco2)cc1,-8,-7%,-1.7,-13,-1,
Cc1ccc(NC(=O)c2noc3c2CCCCC3)cc1C,-30,.,-0.1,-4,1,
COc1ccc(C(=O)c2ccccc2)cc1Br,-24,1%,16,-8,-13,
CC(C)(C)c1ccc(C2(C)NC(=O)N(CC(=O)NCc3cccs3)C2=O)cc1 (stereo not drawn),-21,3%,3.1,1,5,
Cc1nnc(NC(=O)CCSCCC(=O)Nc2nnc(C)s2)s1,.,1%,.,1,1,
CCOC(=O)CN=C/C(C(C)=O)=C(/C)O,.,-4%,-2.5,7,-4,
Cc1cccc(C)c1OCC(=O)NC(Cc1c[nH]c2ccccc12)C(=O)O (stereo not drawn),.,5%,1.3,5,-3,
CCCn1c(N)c(C(=O)CSc2ncc(C(F)(F)F)cc2Cl)c(=O)[nH]c1=O,.,-1%,-0.8,-6,-4,
C/C(=N/NS(=O)(=O)c1ccc(F)cc1)c1ccc(NC(=O)c2ccc(C)o2)cc1,-36,0%,-4.6,6,-12,
NNC(=O)c1ccc(COc2ccc3c(c2)CCC3)o1,-4,-6%,5.9,-14,-7,
CCN1CCN(C(C)C(=O)Nc2c(C)n(C)n(-c3ccccc3)c2=O)CC1 (stereo not drawn),-12,-8%,.,4,-5,
O=C1C2C(C(=O)N1/N=C/c1ccc([N+](=O)[O-])o1)C1C=CC2C12CC2 (stereo not drawn),-18,8%,-0.1,13,100,
O=C(Cn1cnc2ccccc2c1=O)NCCC(=O)Nc1ccc2c(c1)OCCO2,-5,-14%,1.9,1,-6,
CCOc1ccccc1NC(=O)Cn1c(C)cc(COC)c(C#N)c1=O,-16,-3%,-3.0,8,-1,
Cc1ccc(Cl)cc1N1CCN(C(=O)c2ccc(NC3=NC4CS(=O)(=O)CC4S3)cc2)CC1 (stereo not drawn),.,.,-1.1,.,-2,
Cc1ccc(-n2c(C)c(C)c3c(NCCN(C)C)ncnc32)cc1,.,.,3.0,.,-6,
O=C(CCNS(=O)(=O)c1ccccc1)OCC(=O)c1ccc[nH]1,.,.,0.0,.,-3,
O=C1CCCc2c1nc(-c1ccccc1F)n2O,.,-1%,0.7,.,6,
Cc1nn(Cc2ccc(C(=O)N3N=C(C(F)F)CC3(O)C(F)F)cc2)c(C)c1[N+](=O)[O-] (stereo not drawn),-9,-1%,3.7,7,-3,
COc1ccc(C(=O)NNC(=O)C2CCCN(C3CC(=O)N(c4ccccc4)C3=O)C2)cc1 (stereo not drawn),.,1%,-1.1,.,-7,
CC(C)CN(C(=O)COC(=O)c1cnccn1)c1c(N)n(Cc2ccccc2)c(=O)[nH]c1=O,.,.,2.2,.,0,
CN(CCOc1ccc(Br)cc1)CC(O)c1ccccc1 (stereo not drawn),.,.,-2.1,.,10,
Cc1cc(NC(=O)c2ccc(NC(=O)C(C)C)cc2)no1,-2,10%,0.3,-4,-8,
CC(C)CN(C(=O)CSc1nnnn1C)C1CCS(=O)(=O)C1 (stereo not drawn),.,0%,-2.5,3,0,
Cc1c(Cl)cccc1NC(=O)CSc1nc2ncc(Cl)cc2[nH]1,.,.,0.9,.,48,
O=C(/C=C/c1ccc(F)cc1)Nc1ccc(S(=O)(=O)Nc2ncccn2)cc1,.,-2%,-1.0,.,2,
Cc1c(NC(=O)C2CC(c3c(F)cccc3Cl)=NO2)c(=O)n(-c2ccccc2)n1C (stereo not drawn),-17,-6%,0.8,10,4,
O=C(O)COc1ccc(-c2nnn(CC(=O)O)n2)cc1,1,1%,0.2,7,3,
O=S(=O)(Nc1cccc(S(=O)(=O)N2CCOCC2)c1)c1cccs1,.,.,0.5,.,-7,
COc1ccccc1NCCC(=O)OCC(=O)NC1CCCCC1,-8,5%,-3.9,7,-7,
O=C1NC(=O)N(Cc2ccco2)C(=O)/C1=C\c1cccn1CCOc1ccc(Cl)cc1,-16,3%,2.5,-16,-1,
COc1ccc(SCCN2CCN(C)CCC2=O)cc1,.,-1%,0.2,.,.,
CCOC(=O)c1ccc(S(=O)(=O)N2CCN(CC(=O)NC(=O)NC3CCCCC3)CC2)cc1,-2,.,-2.2,4,-1,
CCOC(=O)/C(C#N)=C/C=C1\C=Cc2ccccc2N1CC,.,-2%,1.3,4,5,
CCN(CC)c1ccc(/C=N/NC(=O)CC(C)C)cc1,.,-2%,6.2,6,6,

# Sorted by SMILES length (low to high): four of the compounds above.
SMILES,YopH PTP inh,Mtb growth,RecA splice inh,Arbovirus inh,Mtb bLac sens,others
CCOC(=O)/C(C#N)=C/C=C1\C=Cc2ccccc2N1CC,.,-2%,1.3,4,5,
CC(C)CN(C(=O)CSc1nnnn1C)C1CCS(=O)(=O)C1 (stereo not drawn),.,0%,-2.5,3,0,
Cc1ccc(-n2c(C)c(C)c3c(NCCN(C)C)ncnc32)cc1,.,.,3.0,.,-6,
COc1ccc(C(=O)NNC(=O)C2CCCN(C3CC(=O)N(c4ccccc4)C3=O)C2)cc1 (stereo not drawn),.,1%,-1.1,.,-7,

# Next part
SMILES,YopH PTP inh,Mtb growth,RecA splice inh,Arbovirus inh,Mtb bLac sens,others
CSc1nc(N2CCOCC2)nc2ccc(C)cc12,.,.,-43,.,13,
Cc1onc(-c2ccccc2)c1CNC(=O)C1COc2ccccc2O1 (stereo not drawn),.,4%,4.0,.,-10,
CC(C)S(=O)(=O)C1=NSC2=NC(=O)/C(=C\c3ccc(OC(=O)c4ccco4)cc3)C(=N)N21,.,.,34*,.,94,
CSc1ccccc1NC(=O)C1CCCO1 (stereo not drawn),.,-8%,1.0,1,-1,Arbovirus inh repeat=-2
COc1ccccc1C(=O)C1CCCN(C(=O)c2cn3cc(Cl)ccc3n2)C1 (stereo not drawn),.,-6%,3.7,1,-7,
CSc1ncccc1C(=O)Nc1cc(C)ccn1,.,.,3.7,.,?,
CCSc1nc2ccccc2n1C(=O)Oc1ccccc1,-26,-6%,3.8,-2,-3,
COc1ccc(-n2c(COc3ccc(C)cc3)nnc2SCC(N)=O)cc1,-30,4%,3.1,11,-6,
COCCNC(=O)CN1CCC(NC(=O)C(C)(C)C)CC1,-31,-5%,-0.9,1,-7,
CCNC(=S)N/N=C(\C)c1cc2ccccc2o1,-19,?,1.2,2,90,
CCCn1c2c(c(O)c(C(=O)NC)c1=O)CCCC2,-16,-19%,-2.6,12,-2,
c1ccc(COc2ccc(OCCCCN3CCCC3)cc2)cc1,-15,2%,-0.7,-7,9,
O=C(NCc1ccco1)c1ccc2snnc2c1,-19,-16%,0.9,-3,-4,
C=CCOC(=O)C1=C(C)Nc2nnnn2C1c1cccs1 (stereo not drawn),-53,10%,2.2,-4,-3,
COC(=O)c1[nH]c2ccc(C)cc2c1NC(=O)Nc1ccc(OC)cc1,-30,2%,-1.1,-7,-9,
COc1ccc(C(=O)/C(=C/N(C)C)S(=O)(=O)c2ccccc2)cc1,.,-7%,-1.0,3,-4,
Cc1ccc(SCC(=O)OCC(=O)N2CCN(C(=O)c3ccco3)CC2)c(C)c1,.,.,-0.9,.,-6,
CC(c1ccc(F)cc1)n1c(-c2cccs2)n[nH]c1=S (stereo not drawn),.,16%,8.6,6,-2,
c1ccc(N2CCCCC2)c(Nc2nc3ccccc3n3cnnc23)c1,.,14%,-2.5,.,5,
COc1ccc(C(CCO)NC(=O)c2cccs2)cc1OC (stereo not drawn),.,7%,2.8,11,-7,
CCc1ccc(OCC(=O)N/N=C/c2cc([N+](=O)[O-])ccc2N2CCOCC2)cc1,-34,4%,1.7,9,?,
O=C(CN1CCN(S(=O)(=O)/C=C/c2ccccc2)CC1)Nc1ccc(N2CCOCC2)cc1,.,3%,-1.7,-11,0,
O=C(CN1CCN(C(=O)C2CCCO2)CC1)Nc1ccc(F)cc1 (stereo not drawn),.,.,0.2,.,-14,
CC(Oc1ccc(Br)cc1)c1nc2c3ccccc3nc(=S)n2[nH]1 (stereo not drawn),.,4%,16,-28,72,
COC(=O)c1cc2n(n1)CCN(Cc1ccc(F)cc1)C2=O,-6,-3%,0.5,-1,-4,
CSc1ncc(CN2CCCC(C(=O)c3cccc(Cl)c3)C2)cn1 (stereo not drawn),.,0%,1.3,-3,-8,
CCCOc1c(Cl)cc(C(=O)Nc2ccc3c(c2)OCO3)cc1OCC,-14,20%,1.4,-6,34,
Cc1ccc2c(CN(C)Cc3cccc(Cl)c3)cc(=O)oc2c1C,.,.,11,.,4,
CC(=O)N1CC(C)Oc2ccc(S(=O)(=O)NC(CC(=O)O)c3cc(C)ccc3C)cc21 (stereo not drawn),.,.,-20,.,5,
C=CCN(C(=O)c1csnn1)C(C(=O)NCc1ccccc1)c1c(F)cccc1Cl (stereo not drawn),.,.,-0.3,.,4,
Oc1[nH]c2ccccc2c1N=Nc1ccccc1F,-7,1%,1.6,-10,39,
Cc1ccc(-c2nc3ccccc3c(=O)n2-n2cccc2)cc1,4,1%,1.5,4,-4,
COc1ccccc1NC(=O)COC(=O)CCn1c(C)csc1=O,.,.,-1.0,.,-3,
CCn1c(SCC(=O)Nc2ccc(C)cc2)nnc1-c1cnccn1,.,.,-1.1,.,8,
CCc1cc2c(=O)n(Cc3ccco3)c(SCC(=O)NCC3CCCO3)nc2s1 (stereo not drawn),.,.,0.1,.,-2,
O=C(Nc1cc(S(=O)(=O)N2CCOCC2)ccc1Cl)C(=O)c1c(-c2ccccc2)cc2ccccn12,-39,1%,0.6,-5,-10,
CCC1CCCCN1C(=O)CCS(=O)(=O)c1ccccc1 (stereo not drawn),.,.,-1.4,.,-13,
CC(C)NC[C@@H](O)COc1ccc(CC(N)=O)cc1,.,.,2.1,.,3,
CCc1nnc(NC(=O)CSc2nnc(CCc3nc4ccccc4[nH]3)n2C)s1,-12,-10%,2.8,6,-12,
CCOC(=O)C1CCN(C(=O)COC(=O)C2CCN(S(=O)(=O)c3ccc4c(c3)OCCO4)CC2)CC1,.,.,-0.5,.,-4,
Cc1c(C(=O)N(C)C2CCCCC2)sc2ncnc(N3CCN(c4ccccc4F)CC3)c12,.,.,19,.,11,
Cc1cc(Nc2ccc(N3CCOCC3)cc2)c2cccc(C)c2n1,.,0%,-4.0,.,-1,
Cc1ccc(NC(=O)N2CCC(NC(=O)c3cccc(F)c3)CC2)cc1,.,.,3.6,.,-5,
CC(C)(C)OC(=O)NCCc1nnc(SCc2c(Cl)cccc2Cl)o1,-5,1%,4.8,-7,1,
COc1ccc(C)cc1NC(=O)CCC(=O)Nc1ccc2nc(N3CCN(C)CC3)cc(C)c2c1,-28,.,-2.2,-9,8,
CCC(CC)NC(=O)Nc1ccc(F)cc1F,.,0%,-0.6,-1,-11,
O=C1C2CCCC1C(N1CCCCC1)CC2 (stereo not drawn),.,.,0.3,.,-2,
CCOC(=O)c1ccc(NC(=O)COc2ccc(CNC3CCCCC3)cc2OC)cc1,.,48%,.,-19,90,
COc1cc2c(cc1OC)C(NC(=O)C(F)(F)F)CNC2=O (stereo not drawn),.,-3%,0.7,11,1,
COc1ccccc1OCCCCCCN1CCN(C)CC1,.,.,-1.5,.,5,
Cc1cc(NC(=O)CCCn2nc([N+](=O)[O-])cc2C)no1,.,-4%,4.0,4,-5,
COc1ccc(NC(=O)CSc2nnc(-c3ccccc3)n2Cc2ccco2)cc1OC,-12,-1%,0.0,2,2,
COC(=O)c1ccc(/C=C2\Oc3ccccc3NC2=O)cc1,.,.,2.0,.,7,

# Pulled by compound from the entries so far (four):
SMILES,YopH PTP inh,Mtb growth,RecA splice inh,Arbovirus inh,Mtb bLac sens,others
COc1ccc(C)cc1NC(=O)CCC(=O)Nc1ccc2nc(N3CCN(C)CC3)cc(C)c2c1,-28,.,-2.2,-9,8,
CC(C)(C)OC(=O)NCCc1nnc(SCc2c(Cl)cccc2Cl)o1,-5,1%,4.8,-7,1,
CCC(CC)NC(=O)Nc1ccc(F)cc1F,.,0%,-0.6,-1,-11,
COc1cc2c(cc1OC)C(NC(=O)C(F)(F)F)CNC2=O (stereo not drawn),.,-3%,0.7,11,1,

# Some of the compounds tested; count on the stated rates, not on these rows.
